TRPML1 inh – qHTS for Inhibitors of the Human Mucolipin Transient Receptor Potential 1 (TRPML1) | Mucolipin-1 (Homo sapiens), Q9GZU1 | TRPML1-inducible cells, Ca2+ dye fluorescence, FDSS; active compounds read low; inhibition of EC80 agonist-evoked calcium signal | activity change, negative = inhibition, % (test concentration not listed) | hit rate 0.02% among 390,000 | AID 624415, 2012; in the data active means activity change below about -50%; inconclusive means about -30% to -50%; inactive means above about -30%;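 note: stimulus is agonist 54-4 at its EC80 concentration; % is set by controls: 0 for no effect and ±100 for the full control effect; compound concentration not given in the record; the text of the record puts the active cut at -80%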
Target sequence (Q9GZU1 whole entry, looked up): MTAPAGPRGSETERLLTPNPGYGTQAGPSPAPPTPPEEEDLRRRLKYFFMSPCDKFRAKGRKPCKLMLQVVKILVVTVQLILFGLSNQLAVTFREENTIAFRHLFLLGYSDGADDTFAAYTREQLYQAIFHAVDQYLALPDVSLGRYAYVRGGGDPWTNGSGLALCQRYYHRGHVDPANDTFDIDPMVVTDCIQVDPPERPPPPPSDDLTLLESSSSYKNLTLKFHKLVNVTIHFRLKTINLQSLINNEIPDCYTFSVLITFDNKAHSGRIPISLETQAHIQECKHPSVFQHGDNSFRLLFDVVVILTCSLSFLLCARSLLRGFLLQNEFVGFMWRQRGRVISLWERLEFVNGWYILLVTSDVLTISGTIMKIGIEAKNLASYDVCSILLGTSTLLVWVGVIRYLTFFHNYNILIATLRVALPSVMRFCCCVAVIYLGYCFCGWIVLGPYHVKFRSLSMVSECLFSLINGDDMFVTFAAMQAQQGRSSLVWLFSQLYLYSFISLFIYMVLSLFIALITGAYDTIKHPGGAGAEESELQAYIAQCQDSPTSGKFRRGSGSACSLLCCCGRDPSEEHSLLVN
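TRPML1-DL cells, Tet-induced overnight (~16 h, 37 °C) at 1,500 cells/well, were loaded with Ca8 no-wash dye plus quencher for 45-90 min at room temperature. Compounds were pinned during FDSS kinetic reading; agonist 54-4 at EC80 (4 uM final) then added.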
gsp antag – qHTS for Antagonists of gsp, the Etiologic Mutation Responsible for Fibrous Dysplasia/McCune-Albright Syndrome: qHTS. gsp-mutant cells, cAMP HTRF, 30 min; control for the full effect not named in the record. Potency, µM (titrated, usually from 76.9 µM), for the others: at the top dose activity change, negative = inhibition, usual class: inhibitors. hit rate 0.4% among 340,000; active = falling curve of any shape with a large fitted effect; inconclusive = falling curve, mostly with a smaller effect; inactive = flat or rising curve; cell line not stated here;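 note: intracellular cAMP measured with PDE inhibitor Ro 20-1724 present during compound exposure; potency is the fitted concentration of half-maximal effect; % is set by controls: 0 for no effect and ±100 for the full control effect; nearly all actives have a fitted effect of over 65% in size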
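Cells in G418 medium, seeded 16-24 h, 37C; buffer exchange to DPBS + 1 mM CaCl2, 0.5 mM MgCl2, 0.05% BSA; cpds in DMSO + […] (300 uM stock), 30 min 37C; HTRF cAMP detection.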
Menin-MLL FL inh – qHTS Assay for Inhibitors Targeting the Menin-MLL Interaction in MLL Related Leukemias: Competition With Fluorescein Labeled MLL-derived Peptide. Fluorescence polarization, fluorescein-MLL peptide displacement from menin. FP activity change, % at 61.4 µM. 290,000 tested, under 10 active; inconclusive = falling polarisation curve, or a change in total fluorescence; inactive = total fluorescence flat and polarisation flat or rising; no compound was filed as active; the % refers to the polarisation; negative = inhibition;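 note: % of control where 0% means no effect; inhibitors lower the polarisation; unlabelled MLL peptide was the positive control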
TRPML1 ag – qHTS for Agonists of the Human Mucolipin Transient Receptor Potential 1 (TRPML1). TRPML1-expressing cells, Ca2+ dye fluorescence, FDSS; host cell line not named in the record; reference of the full effect not given here. Mucolipin-1 (Homo sapiens), Q9GZU1. activation, % (no concentration beside the values). hit rate 0.12% among 410,000. AID 624414, 2012; in the data active = activation above about 50%; inconclusive = about 30% to 50%; inactive = below about 30%; note: 0% is about no effect; the text of the record puts the active cut at 80%
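In this qHTS format, compounds were pin-transferred onto Ca8-dye-loaded TRPML1-DL cells induced with Tet overnight, and intracellular Ca2+ fluorescence was recorded kinetically for 110 s after a 10 s baseline. A subsequent 4uM final 54-4 (EC80) addition followed by a second 110 s read served as the antagonist phase.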
ClpP mod – qHTS Assay for Activators of ClpP; ATP-dependent Clp protease proteolytic subunit (Bacillus subtilis (strain 168)), P80244; purified B. subtilis ClpP, FRET peptide cleavage, 20 min; Potency, µM (top dose mostly 57.5 µM), without a hit: at the highest dose activity change, negative = active; hit rate 1.9% among 340,000; AID 651965, 2013; active = well fitted falling curve with a large enough effect; inconclusive = small, poorly fitted or top-dose-only effect; inactive = no such curve, though single readings can be large or run the other way; note: potency is the fitted concentration of half-maximal effect; the source files actives as falling curves though it sought activators and does not explain the sign; nearly all actives have a fitted effect of over 65% in size; many hits overshoot -100%
Target sequence (P80244 whole entry, looked up): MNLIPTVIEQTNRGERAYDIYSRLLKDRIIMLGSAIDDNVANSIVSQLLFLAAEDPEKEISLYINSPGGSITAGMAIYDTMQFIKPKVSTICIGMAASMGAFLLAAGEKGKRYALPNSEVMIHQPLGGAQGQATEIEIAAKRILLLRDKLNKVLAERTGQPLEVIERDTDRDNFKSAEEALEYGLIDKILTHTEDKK
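ClpP 10 microg/mL final, pH 8 Tris/KCl buffer with BSA, glycerol, Tween-20; compound pinned in; FRET-FV substrate; RT 20 min; Ex320/Em430; ΔFRET vs ADEP 5.8 microM, DMSO, no enzyme.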
gsp agonist – qHTS for Agonist of gsp, the Etiologic Mutation Responsible for Fibrous Dysplasia/McCune-Albright Syndrome: qHTS; gsp mutant cells, cAMP HTRF, 30 min; control for the full effect not named in the record; Potency, µM (series often up to 76.9 µM), without a hit: top-dose activation (cAMP increase), actives largely listed as activators; hit rate 0.13% among 340,000; active = well fitted activation curve with a large enough effect; inconclusive = small, poorly fitted or top-dose-only effect, or another doubt; inactive = no such curve, though single readings can be large or run the other way; cell line not stated here;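 note: phosphodiesterase inhibitor Ro 20-1724 added with compounds to block cAMP breakdown; potency is the fitted concentration of half-maximal effect; nearly all actives have a fitted effect of over 60% in size; about a fifth of the inactives were tested at one dose only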
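Cells stably selected in G418 were plated at 2000/well, grown 16-24 hr, then given compounds in DMSO with the PDE inhibitor […] (300 uM solution added) for 30 min at 37C; cAMP was read by HTRF.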
The depositor's hits bear a star; [ ] = remark or other dose.

Screening CCCCNS(=O)(=O)c1ccc2nc(-c3cccnc3)cc(C(=O)NCC(OC)OC)c2c1 returned TRPML1 inh -1, gsp antag -3%, Menin-MLL FL inh 4.4, TRPML1 ag 0.0, ClpP mod 0.5% and gsp agonist 0%.
Screening Cc1cc(=O)n(Cc2c(F)cccc2Cl)c2c1c(C)nn2-c1cccc(F)c1 returned TRPML1 inh 3, TRPML1 ag -0.1 and ClpP mod 0.2%.
Screening COc1ccccc1C(CNC(=O)c1cccc(S(=O)(=O)Nc2ccc(F)cc2)c1)N1CCCC1 (stereo unspecified) returned TRPML1 inh 3, gsp antag 2%, TRPML1 ag 0.1, ClpP mod -2.2% and gsp agonist -19%.
`COc1nc(Oc2ccc(=O)n(-c3ccccc3)n2)nc(N(C)C)n1` gave TRPML1 inh -16, TRPML1 ag -0.6 and ClpP mod 0.8%.
For S=C(Nc1ccc(Cl)cc1)N1CCN(Cc2ccccc2)CC1 the results were TRPML1 inh 8, gsp antag -8%, Menin-MLL FL inh 0.1, TRPML1 ag 0.2, ClpP mod 1.2% and gsp agonist -23%.
Screening O=S(=O)(NCCS(=O)(=O)N1CCN(c2ccccc2)CC1)c1ccc(Cl)cc1 returned TRPML1 inh 1, TRPML1 ag 1.2 and ClpP mod -0.3%.
Screening O=C(CN1CC(=O)Nc2ccccc21)NCCc1ccc(Cl)cc1Cl returned TRPML1 inh 15, gsp antag 0%, Menin-MLL FL inh 8.7, TRPML1 ag -0.7 and gsp agonist -1%[15.4 µM].
For Cc1ccc(N2CCN(CC(O)COc3ccccc3)CC2)cc1 (stereo unspecified) the results were TRPML1 inh 7, gsp antag 14%, Menin-MLL FL inh 1.1, TRPML1 ag -0.4 and gsp agonist -32%[inhibitor].
For NC(Cc1ccc2nsnc2c1)C(=O)O (stereo unspecified) the results were TRPML1 inh -12, gsp antag -3%, TRPML1 ag -0.3, ClpP mod -24% and gsp agonist -62%[inhibitor].
Cc1cc2cc(CCNC(=O)CCCc3ccccc3)c(=O)[nH]c2cc1C was read as TRPML1 inh 6, gsp antag 8%, Menin-MLL FL inh 0.1, TRPML1 ag 1.1, ClpP mod -20% and gsp agonist 9%.
Screening CCn1c(O)c(N=NC(=O)C(O)c2ccccc2)c2ccccc21 (stereo unspecified) returned TRPML1 inh -12, gsp antag 4%, Menin-MLL FL inh 2.5, TRPML1 ag 2.7 and gsp agonist -14%[15.4 µM].
`COCC(=O)Nc1nc2ccc(C)cc2s1` gave TRPML1 inh -3, gsp antag 4%, Menin-MLL FL inh 2.7, TRPML1 ag -0.4, ClpP mod -0.5% and gsp agonist 24%.
For Cc1ccc(S(=O)(=O)NC(=O)c2cccn2C)cc1 the results were TRPML1 inh -11, gsp antag 3%, Menin-MLL FL inh 5.5, TRPML1 ag -0.4, ClpP mod -2.0% and gsp agonist -9%.
`Cc1ccc(C(=O)N2CCCC(C(F)(F)F)C2)cc1S(=O)(=O)N1CCCCC1` (stereo unspecified) gave TRPML1 inh 2, gsp antag -10%, TRPML1 ag -0.5, ClpP mod -1.3% and gsp agonist -39%.
`CCOC(=O)C1CCCN(C(=O)c2cc(S(=O)(=O)N3CCCCC3)ccc2C)C1` (stereo unspecified) gave TRPML1 inh 38, gsp antag -9%, Menin-MLL FL inh 3.3, TRPML1 ag 3.0 and gsp agonist 9%[15.4 µM].
`Oc1ccc(/C=N/n2c(-c3ccccc3)n[nH]c2=S)cc1` gave TRPML1 inh 5, gsp antag -8%, Menin-MLL FL inh 3.9, TRPML1 ag -0.5 and gsp agonist -64%[inhibitor].
O=C(Cn1ccc([N+](=O)[O-])n1)Nc1nc2ccccc2s1 was read as TRPML1 inh 11, gsp antag -3%, Menin-MLL FL inh 1.2, TRPML1 ag 0.2 and gsp agonist -21%[15.4 µM].
`CCN(CC)S(=O)(=O)c1ccc(OC)c(NC(=S)Nc2ccc(C)c(C)c2)c1` gave TRPML1 inh 10, gsp antag -9%, Menin-MLL FL inh 2.2, TRPML1 ag 2.7, ClpP mod 1.7% and gsp agonist 4%.
For CC(CCc1ccccc1)NS(=O)(=O)c1ccccc1F (stereo unspecified) the results were TRPML1 inh 15, gsp antag 5%, Menin-MLL FL inh 4.1, TRPML1 ag 2.1 and gsp agonist 3%.
Screening CC(C)(C)c1ccc(C(=O)N2CCCC(c3nc4c(nnn4Cc4cccc(F)c4)c(=O)[nH]3)C2)cc1 (stereo unspecified) returned TRPML1 inh -10, TRPML1 ag 3.1 and ClpP mod 1.1%.
Cc1sc(NC(=O)c2ccc(OCC(C)C)cc2)c(C(N)=O)c1-c1ccc(Cl)cc1Cl was read as TRPML1 inh -3, gsp antag -6%, Menin-MLL FL inh 3.5, TRPML1 ag 0.9, ClpP mod 1.0% and gsp agonist 36%[15.4 µM].
Screening CCc1nc2ccccc2n1CC(=O)N(C(C)CC)C1CCS(=O)(=O)C1 (stereo unspecified) returned TRPML1 inh -7, gsp antag -3%, Menin-MLL FL inh 2.5, TRPML1 ag 0.5, ClpP mod -0.5% and gsp agonist 22%.
Screening O=C(COc1ncnc2sccc12)Nc1ccc(F)cc1F returned TRPML1 inh -7, gsp antag -5%, Menin-MLL FL inh 5.4, TRPML1 ag 0.5, ClpP mod 0.6% and gsp agonist inconclusive.
For Fc1ccc(N2CCN(c3ncnc4nc[nH]c34)CC2)cc1 the results were TRPML1 inh -10, gsp antag 13%, Menin-MLL FL inh -0.9, TRPML1 ag 0.2, ClpP mod -0.3% and gsp agonist inconclusive.
CC1=NN(c2ccc(Cl)c(C(=O)O)c2)C(=O)/C1=C/c1ccc(-c2ccccc2[N+](=O)[O-])o1 was read as TRPML1 inh 24, gsp antag 1%, Menin-MLL FL inh -16, TRPML1 ag 1.0 and gsp agonist inconclusive.
For CN(C)CCNC(=O)c1csc(Nc2cccc3ccccc23)n1 the results were TRPML1 inh -4, gsp antag -14%, Menin-MLL FL inh -1.6, TRPML1 ag 0.5 and gsp agonist -36%[inhibitor].
For Cc1ccc(O)c(CNc2cccc3cccnc23)c1 the results were TRPML1 inh -9, gsp antag -6%, Menin-MLL FL inh 4.1, TRPML1 ag 0.0, ClpP mod -1.7% and gsp agonist 8%[15.4 µM].
C[N+]12CCCCC1C(COC(=O)c1ccc3c(c1)OCO3)CCC2 (stereo unspecified) was read as TRPML1 inh -6, gsp antag 5%, Menin-MLL FL inh -1.1, TRPML1 ag 0.5, ClpP mod inconclusive and gsp agonist -59%[inhibitor].
For O=C(COC(=O)c1ccncc1)Nc1cc(Cl)ccc1Cl the results were TRPML1 inh -3, gsp antag 5%, Menin-MLL FL inh -4.6, TRPML1 ag 0.3, ClpP mod -28% and gsp agonist 7%.
For CC(=O)c1ccc(S(=O)(=O)N2CCN(CC#N)CC2)cc1 the results were TRPML1 inh -4, gsp antag 11%, Menin-MLL FL inh 0.0, TRPML1 ag -0.8 and gsp agonist 2%.
CCc1cc2c(cc3c(=O)n(CCCC(=O)NCc4ccccc4Cl)nc(CC)n32)s1 was read as TRPML1 inh 27, TRPML1 ag 1.2 and ClpP mod -0.2%.
`CC(C)(C)c1ccc(-c2nc(SCCOc3ccc(Cl)cc3)n3[nH]c(=O)cc3n2)cc1` gave TRPML1 inh 9, TRPML1 ag -1.0 and ClpP mod inconclusive.
Screening CCOC(=O)c1c(NCC(C)C)c2ccccc2[nH]c1=O returned TRPML1 inh -15, gsp antag 5%, Menin-MLL FL inh 1.3, TRPML1 ag -1.7, ClpP mod 0.5% and gsp agonist -27%.
For CCCC(O)(c1ccc(OC)cc1)C(CN(C)C)c1ccccc1 (stereo unspecified) the results were TRPML1 inh 7, gsp antag 8%, Menin-MLL FL inh -0.8, TRPML1 ag -0.5, ClpP mod -0.3% and gsp agonist -10%.
`COc1cccc(/C=C2/Sc3ccc(C(=O)NCCN4CCCC4)cc3NC2=O)c1` gave TRPML1 inh -16, gsp antag -4%, Menin-MLL FL inh -2.4, TRPML1 ag 0.0, ClpP mod -1.3% and gsp agonist 28%.
For Cc1sc2ncnc(N3CCC(C(=O)NNC(=O)COc4ccc(Cl)cc4)CC3)c2c1C the results were TRPML1 inh -8, gsp antag 32µM*, TRPML1 ag 0.6, ClpP mod -0.4% and gsp agonist inconclusive.
For CCC(C)c1ccc(NC(=S)NCc2ccccc2OC)cc1 (stereo unspecified) the results were TRPML1 inh -1, gsp antag inconclusive, Menin-MLL FL inh 0.7, TRPML1 ag -1.3, ClpP mod 2.0% and gsp agonist -5%[15.4 µM].
Screening COc1nc(C)ccc1-c1noc(-c2ccccn2)n1 returned TRPML1 inh -16, gsp antag 5%, Menin-MLL FL inh 1.1, TRPML1 ag 3.5, ClpP mod -2.9% and gsp agonist 2%.
Screening O=C(O)CCN1C(=O)/C(=C\c2cccc(OCc3ccccc3)c2)SC1=S returned TRPML1 inh 5, gsp antag 5%, Menin-MLL FL inh -1.2, TRPML1 ag -1.4, ClpP mod 0.9% and gsp agonist -8%[15.4 µM].
`Cn1ncn2c(=O)c3c(nc12)-c1ccccc1CC31CCCC1` gave TRPML1 inh 11, gsp antag -4%, Menin-MLL FL inh 6.1, TRPML1 ag 1.2 and gsp agonist 24%[15.4 µM].
For S=C(NCc1ccco1)Nc1ccc(N2CCOCC2)cc1 the results were TRPML1 inh -13, gsp antag -3%, Menin-MLL FL inh 0.0, TRPML1 ag 0.2, ClpP mod 3.5% and gsp agonist -4%.
`Cc1ccc(C(=O)NC2CCC(C)CC2)o1` (stereo unspecified) gave TRPML1 inh 15, gsp antag 8%, TRPML1 ag 0.3 and gsp agonist -8%[15.4 µM].
Screening O=C(c1ccccc1)C(O)c1ccccc1 (stereo unspecified) returned TRPML1 inh 4, gsp antag 5%, Menin-MLL FL inh 3.6, TRPML1 ag 0.0 and ClpP mod 0.1%.
Screening CCN(CC(=O)Nc1ccc(NC(C)=O)cc1)C(=O)COc1ccc(C(=O)c2ccccc2)cc1 returned TRPML1 inh -18, gsp antag 20%, Menin-MLL FL inh -1.6, TRPML1 ag 0.1, ClpP mod -1.2% and gsp agonist 11%.
CC(C)(C)C(=O)Nc1ccc2nc(SCC(=O)N3CCOCC3)sc2c1 was read as TRPML1 inh -24, TRPML1 ag 1.8 and ClpP mod -2.9%.

Screening data as filed in PubChem.
